Screening data from PubChem.
Env fusion inh = blocks HIV Env-driven cell-cell fusion. inhibition, % at 12.3 µM. HeLa-JRFL Env/CEM21 cell fusion, luciferase. hit rate 1.1% among 360,000. AID 651610;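 active = mean replicate inhibition score of at least 50 and every replicate individually at or above 50; inconclusive = only one of the two criteria met; inactive = mean below 50 and not all replicates reaching 50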;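 note: 0% = plate neutral controls and 100% = maraviroc near 300 nM; one replicate is shown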
Rce1 inhib = inhibitors of yeast Ras-converting enzyme; calls only; hit rate 0.27% among 290,000; yeast membranes, quenched prenylated peptide cleavage fluorescence; AID 2563;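 active = fall in fluorescence gain of 50% or more versus controls, with final raw signal at or below 3038400; inconclusive = same 50% fall but final raw signal above 3038400; inactive = fall in fluorescence gain under 50%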;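 note: plate controls were neutral control wells for no effect and wells lacking membranes for full effect; tested at 10 µM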
MT1-MMP act inh = blocks activation of human MT1-MMP. P50281. HT1080 RFP-PRO-GFP cells, GFP/RFP ratio fluorescence, overnight; percent of plate control window, DMSO zero. GFP/RFP ratio change, % at 20 µM. hit rate 0.061% among 360,000. AID 651647;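 active = GFP/RFP ratio change of at least 30% with cell ATP level not reduced by more than half and red fluorescence within 50% of control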; note: strong numbers were not always called active
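Assay system: RFP-PRO-GFP reporter HT1080 cells; read-out basis: GFP/RFP fluorescence ratio; benchmarks: DMSO wells and RFP-L50D-GFP cells; doses: 20 µM single dose, 1% DMSO; schedule: overnight cell settling, then overnight compound exposure, 37 °C, 5% CO2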
eIF4H inh = inhibitors of RNA binding by human eIF4H; AID 2012; eIF4H fluorescence polarization binding assay; hit rate 0.94% among 290,000; inhibition, % at 35 µM; Q15056;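 active = 50% or more with normal probe brightness, or confirmed in later tests; inconclusive = above 50% with abnormal brightness, or retests that disagree; inactive = below 50% or failed in later tests; about a fifth of its hits are not listed in these tables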;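 note: calls also rest on retests at 20 µM and on dose response follow-up; 0% = protein and probe with vehicle and 100% = probe without protein; strong numbers were not always called active; many hits fall short of the cut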
Yeast UUG start = modulators of start codon recognition fidelity in yeast; S. cerevisiae UUG-firefly luciferase reporter, luminescence/redox ratio; activity score, % at 18.7 µM; hit rate 0.13% among 350,000; AID 602363;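 active = replicate mean at a twofold rise or more, about +100% in these data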;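 note: firefly luciferase made from a UUG start codon reports start codon fidelity; reporter light over untreated wells divided by growth signal over untreated wells; some hits fall short of that in this replicate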
CSC inhib = cancer stem cell inhibition | cancer stem cell-like cells viability, luminescence | inhibition, % at 7.5 µM | hit rate 1.1% among 300,000 | AID 2717;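 active = mean at 75% or more and at least half the replicates too; inconclusive = mean and replicates disagree; tested in HMLE shEcad cells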;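 note: 0% = median of negative and 100% = median of positive control wells; the first replicate is given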
PABP polyA inh = PABP-poly(A) binding inhibition | inhibition, % at 35 µM | AID 2014 | hit rate 1% among 290,000 | P11940 | PABP-poly(A) RNA binding, fluorescence polarization;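 active = 50% or more with normal probe brightness, or confirmed in later tests; inconclusive = above 50% with abnormal brightness, or retests that disagree; inactive = below 50% or failed in later tests; about a fifth of its hits are not listed in these tables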;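 note: calls also rest on retests at 20 µM and on dose response follow-up; controls were probe without protein and protein plus probe with vehicle; some compounds called inactive have numbers as strong as hits; many hits fall short of the cut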
Target sequence (P11940 whole entry, looked up): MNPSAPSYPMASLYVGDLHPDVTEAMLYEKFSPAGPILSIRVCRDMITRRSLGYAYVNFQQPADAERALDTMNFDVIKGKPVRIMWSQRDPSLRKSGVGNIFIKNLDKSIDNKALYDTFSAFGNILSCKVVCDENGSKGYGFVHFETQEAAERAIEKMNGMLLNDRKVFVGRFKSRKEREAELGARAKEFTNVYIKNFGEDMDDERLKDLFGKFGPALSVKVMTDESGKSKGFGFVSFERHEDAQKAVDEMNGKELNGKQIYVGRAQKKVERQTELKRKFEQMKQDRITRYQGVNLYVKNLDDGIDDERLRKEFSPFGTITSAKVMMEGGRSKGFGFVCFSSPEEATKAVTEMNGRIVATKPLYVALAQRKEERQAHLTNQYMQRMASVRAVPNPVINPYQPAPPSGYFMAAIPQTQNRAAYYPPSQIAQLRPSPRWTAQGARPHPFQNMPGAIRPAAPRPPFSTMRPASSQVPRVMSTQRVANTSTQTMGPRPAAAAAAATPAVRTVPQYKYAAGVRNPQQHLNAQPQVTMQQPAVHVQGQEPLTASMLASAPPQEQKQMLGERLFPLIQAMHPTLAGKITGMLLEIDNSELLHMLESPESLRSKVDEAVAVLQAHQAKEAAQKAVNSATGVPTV
eIF4H inh retest = second read-out of eIF4H inh, no call of its own (marks repeat the call); inhibition, %; compound at 20 µM; confirmation average;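 mean of two retest wells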
PABP polyA inh retest = further read-out of PABP polyA inh, marked with its call; inhibition, %; compound at 20 µM; confirmation repeats;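 mean of two retest wells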
MT1-MMP act inh RFP = recorded beside MT1-MMP act inh, whose call it bears; RFP signal change, %; measured here: RFP expression control read;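 0 = vehicle wells; hits needed this value within 50% of zero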
* hit, by the source's call; i = inactive; ? = inconclusive; / = not tested or not shown; + = active, no number; & = joins results of further samples; [ ] = remark or other dose. Hits appear at their usual frequency; about 3% have a hit in one of these screens.

SMILES	Env fusion inh	Rce1 inhib	MT1-MMP act inh	MT1-MMP act inh RFP	eIF4H inh	Yeast UUG start	CSC inhib	PABP polyA inh	others
COC(=O)c1cc(S(=O)(=O)NCC2CCN(CCc3cccs3)CC2)c[nH]1	-6	i	-2	1	22	/	-2	7
Oc1ccccc1C=NC1CCCCC1N=Cc1ccccc1O (centres undefined)	2	i	0	2	6	/	-7	5
Cc1ccccc1NC(=O)NCc1ccco1	-18	i	0	2	6	-5	-3	12
O=C(CSc1nnc(SCc2ccccc2)s1)N/N=C/c1ccc(Cl)cc1Cl	22	i	1	-2	-13	/	5	2
O=C(COC(=O)CN1C(=O)c2ccccc2C1=O)Nc1ccccc1[N+](=O)[O-]	/	/	-2	5	/	3	6	/
CCOC(=O)c1sc(NC(=O)c2ccc(S(=O)(=O)N3CCCCCC3)cc2)nc1-c1ccccc1	/	i	-13	-31	-8	/	22	-15
COc1ccc(CN2C(=O)CC(Cc3ccc(C)cc3)C2=O)cc1OC (centres undefined)	-12	i	3	-2	4	/	/	8
Cc1ccccc1NC(=O)COc1coc(CN2CCCc3ccccc32)cc1=O	22	i	-14	-8	/	-19	-8	/
N=c1cc(C2(O)CCCCC2)n2c(nc3ccccc32)s1	-271	i	-2	0	-7	-63	4	2
COc1ccc(CCNC2CCc3ccccc3C2)cc1 (centres undefined)	-1	i	4	-2	1	-2	-19	-1
CCO[C@H]1OC(C(=O)N2CCN(Cc3ccc4c(c3)OCO4)CC2)=C[C@@H](c2ccc(Br)cc2)[C@@H]1CCCO	6[16.7 µM]	i	-4	-6	-2	-1&8	8	4
N/C(=N\NC(=O)c1ccccc1)c1cc2ccccc2oc1=O	-18	i	13	8	7	/	-8	0
Cc1ccc(NC(=O)Nc2cccs2)c(Cl)c1	-51	i	-2	-10	2	/	-6	0
CCCN1C(=O)C2(OCCO2)c2cc(Cl)ccc21	-31	i	-5	-4	-1	-12	/	-7
Cc1cc(C(=O)C(=O)N(C)C)c(C)n1-c1ccc([N+](=O)[O-])cc1	-21	i	2	2	6	-2	-2	-7
Cc1ccc(S(=O)(=O)Nc2ccccc2C(=O)N2CCN(C)CC2)cc1	0	i	-1	0	0	-11	-1	-6
CCCCSc1nc(O)c(C2OC(=O)c3c2ccc(OC)c3OC)c(=O)n1-c1ccccc1 (centres undefined)	/	i	1	3	-11	8	-6	-5
O=C(CN1C(=O)C2C3C=CC(C3)C2C1=O)N1CC=C(c2ccccc2)CC1 (centres undefined)	/	i	1	1	-1	-2	-4	-11
Cc1c(N(C)C(=O)c2ccco2)c(=O)n(-c2ccccc2)n1C	-14	i	-1	10	-19	-8	-18	-2
COC(=O)c1c(NC(=O)c2nn(C)cc2Cl)sc2c1CCCC2	-3	i	0	-2	6	-16	0	3
CCC1(CC)N=C(c2ccccc2)C(=S)N1	13	i	1	4	-3	-13	-4	-4
Cc1cccc(C(=O)NCCNC(=O)c2ccccn2)c1	-141	i	-1	-5	0	-18	5	8
Nc1ccc(N(CCO)CCO)cc1	-2	i	-13	16	97	/	3	58	eIF4H inh retest=15;PABP polyA inh retest=23
COc1ccc(NC(=O)CSc2nnc(-c3ccncc3)o2)c([N+](=O)[O-])c1	8	i	-3	-5	0	-8	-24	8
Cc1cc(S(=O)(=O)Nc2ccc(C(=O)NCc3ccncc3)cc2)ccc1F	-3	i	5	1	/	-23	-11	/
C=CCNC(=O)c1scc2c1CCCC2	/	i	0	0	-2	-18	-17	-10
CCCCn1c(N)c(N(CC(C)C)C(=O)CCC2CCCCC2)c(=O)[nH]c1=O	16	i	-3	-4	2	-10	7	-6
CC(=O)C1=C(O)C(=O)N(c2ccc(C)cc2)C1c1ccc([N+](=O)[O-])cc1 (centres undefined)	-6	i	-2	-2	5	/	-5	20
CC1CCCCC1NC(=O)Cn1nnc2ccccc2c1=O (centres undefined)	8	i	-4	4	9	/	-8	4
Cc1ccc(/C=N/Nc2ccc(Cl)c(C(=O)O)c2)s1	-100	i	-3	2	12	/	-13	-1
O=C1CNC(=O)/C1=C/c1ccc(O)cc1	-33	i	/	/	-18	-17	-6	-17
CNC(=O)c1ccsc1NC(=O)CS(=O)(=O)c1ccccc1	10	i	3	0	/	/	-8	/
CC(C)c1ncc(CO)n1Cc1c(Cl)cccc1Cl	-5	/	5	2	/	-17	/	/
CCN(C(=O)Cn1cnc2c1c(=O)n(C)c(=O)n2C)C1CCS(=O)(=O)C1 (centres undefined)	-6	/	-1	3	/	-13	/	/
O=C(N/N=C1/CCSC1)c1cccc([N+](=O)[O-])c1	-46	i	6	-1	-12	/	-29	15
CC(NC(=O)C(=S)N1CCN(C)CC1)c1ccccc1 (centres undefined)	11	i	-6	4	-1	0	2	-5
COc1ccccc1N1CC(C)(C)C(=O)N(C(=O)c2c(F)cccc2Cl)C1=S	32	i	-5	-7	-2	-11	-9	-3
O=S(=O)(c1ccccc1)N1CCSC1c1ccco1 (centres undefined)	/	i	3	3	-3	-3	/	6
Cc1ccc(OC(=O)CCC(=O)N2CCc3ccccc32)cc1	26	i	0	1	-6	-3	13	2
CC(=O)Nc1ccccc1C(=O)C(=O)Nc1cccc(C(=O)N2CC(C)CC(C)C2)c1 (centres undefined)	4	i	-2	-11	-4	/	4	-26
Cc1ccc(C(=O)Nc2cc(C(C)C)c(O)c(C(C)C)c2)cc1	24	i	8	1	-4	7	-14	0
COc1cc(SC)ccc1C(=O)NCc1ccc(C)cc1	-32	i	-9	-9	-13	-1	-11	-9
CC(=O)N1c2ccccc2NC2=C(C(=O)CCC2)C1c1ccc(F)cc1 (centres undefined)	/	i	4	5	25	0	3	-8
Cc1ccc(OCCC(=O)O)cc1	6	i	4	6	?	-9	-4	23*	PABP polyA inh retest=109*
COc1ccc(/C=C/C(O)=C(\C#N)c2nnc(N3CCOCC3)n2-c2ccccc2)cc1OC	-3	i	-5	-4	-2	/	19	-4
CN(c1ccccc1)S(=O)(=O)c1cccc(NC(=O)CSc2ncc(C(F)(F)F)cc2Cl)c1	0	i	6	7	28	-10	23	-4
Cc1cc(C)cc(NC(=O)C2CCCN2S(=O)(=O)c2ccc3c(c2)C(C)(C)C(=O)N3C)c1 (centres undefined)	6	i	0	1	8	9	/	2
O=C1CCc2cc(S(=O)(=O)NC3CCCCC3)cc3c2N1CC3	-9	i	4	6	/	/	8	/
COC(=O)Oc1cncc(C(=O)O)c1	/	i	-1	1	-3	4	-4	9
Cc1ccc(S(=O)(=O)N2CCN(C(=O)Cc3ccsc3)CC2)c(C)c1	13	i	-1	-2	-10	-6	8	-4
CC1=C(C(=O)Nc2ccccc2)C(c2cccnc2)n2nc(-c3cccnc3)nc2N1 (centres undefined)	-27	i	1	3	1	-7	13	6
COc1ccccc1CNC(=O)c1cc(-c2cc(F)ccc2OC(C)C)n[nH]1	-20	/	1	-5	/	-6	/	/
COc1ccc(N(CC(=O)Nc2cc(C)ccc2C)S(=O)(=O)c2c(C)nn(C)c2C)cc1	-15	i	10	-1	-12	-6	-12	-18
O=C(Cn1nnc(-c2ccccc2)n1)NNC(=O)c1ccc(Br)cc1	-8	i	-1	7	-3	/	-10	8
CCc1nc2c(OCc3ccccc3C(=O)OC)cccn2c1N(C)C(=O)Nc1ccccc1OC	?	/	0	-10	/	-14	/	/
O=C(c1ccc(F)cc1)N1CCOCC1	-6	i	-1	4	-7	-9	-14	3
O=C(CCC(=O)c1ccc(Oc2ccccc2)cc1)Nc1cccc(Cl)c1	/	i	12	7	-2	0	/	20
O=C1CCN(Cc2ccccc2)C(=O)N1c1ccccc1	-1	i	2	3	1	-5	2	-2
CCOC(=O)/C(C#N)=N\Nc1ccc(S(=O)(=O)Nc2nc(C)cc(C)n2)cc1	/	i	-2	3	-6	-22	-3	4
O=S(=O)(/C=C/c1ccccc1)Nc1ccc(N2CCOCC2)cc1	/	i	0	-1	2	/	-2	32
Further records.
SMILES	Env fusion inh	Rce1 inhib	MT1-MMP act inh	MT1-MMP act inh RFP	eIF4H inh	Yeast UUG start	CSC inhib	PABP polyA inh	others
Cc1ccc(C2(C)NC(=O)N(CC(=O)Nc3ccccc3N3CCCCC3)C2=O)cc1 (centres undefined)	-174	i	1	-1	/	0	-3	/
Cc1nc(-c2ccncc2)sc1C(=O)Nc1ccc(Br)cc1	-18	i	2	1	1	/	-14	-12
COc1ccccc1-c1nc(-c2ccccn2)no1	26	i	1	3	5	-77	45	3
N#Cc1c2n(cnc1=O)CCCCC2	/	i	1	2	-6	-27	-18	0
CCc1c(C)nc2nc(SCc3ccccc3Cl)[nH]n2c1=O	-1	i	2	0	4	-12	-3	2
CC1CN(c2nn3c(=O)c4ccccc4nc3c3ccccc23)CC(C)O1 (centres undefined)	/	i	12	1	4	/	-10	-6
COc1ccc(Cn2ccc(=O)c(Cc3c(Cl)cccc3Cl)c2C)cc1	/	i	-2	-7	-7	1	-1	-8
COc1cc(OC)cc(C(=O)NN2CCCCC2)c1	4	i	0	1	4	-13	/	-3
CC(=O)NC1=NN(C(C)=O)C(C)(c2ccc(Cl)s2)S1 (centres undefined)	58	i	-5	-8	-10	-5	25	2
CN(C(=O)CSc1ncnc2sc3c(c12)CCC3)C1CCS(=O)(=O)C1 (centres undefined)	6	/	-4	4	/	-18	/	/
Cc1nnc(SCCC(=O)Nc2ccc(F)cc2)s1	-19	i	0	1	-5	-32	-4	3
COc1ccc(C2=Nn3c(nnc3-c3ccc(OC)cc3)SC2)cc1	-1	i	20	-2	2	-17	41	-1
COc1cccc(Cl)c1NC(=O)N1CCc2c([nH]c3ccccc23)C1C(F)(F)F (centres undefined)	83*	/	5	-1	-3	/	16	-1
CC(=O)c1cccc(CN2CCC(C(=O)Nc3ccc(-c4cccc(C)c4)cc3)CC2)c1	6	i	11	-12	-12	6	45	-11
Cc1nnn(-c2nonc2N)c1C(=O)N/N=C/c1cccc2ccccc12	-33	+	4	2	-17	/	-8	11
C=CCn1c2ccccc2c2nnc(SC(CC)C(=O)Nc3sc4c(c3C#N)CCCC4)nc21 (centres undefined)	4	i	-5	-4	-5	/	-2	0
Cc1cc(NN)nc(NS(=O)(=O)c2ccc(Cl)cc2)n1	10	i	1	3	0	/	-7	-7
COc1cc(Cl)c(S(=O)(=O)N2CCOCC2)cc1Cl	-39	i	-1	-3	-9	-13	-2	-4
O=C(NC1CCCc2c1cnn2-c1ccccc1F)c1ccccc1N1CCOCC1 (centres undefined)	-172	i	-2	-8	55	-10	-22	0	eIF4H inh retest=1;PABP polyA inh retest=2
Cc1ccc2c(c1)NCC(C(=O)NCc1ccccc1)O2 (centres undefined)	12	i	2	-2	6	-13	-3	-3
CCCCCCc1cc2cc(S(=O)(=O)c3ccc(F)c(Cl)c3)c(=O)oc2cc1O	?	i	-23	-37	3	-19	-3	0
O=C(Cc1ccc2c(c1)OCCO2)N1CCN(S(=O)(=O)c2cccc(C(F)(F)F)c2)CC1	/	i	-1	0	3	/	9	2

As a working copy, part of the list above:
SMILES	Env fusion inh	Rce1 inhib	MT1-MMP act inh	MT1-MMP act inh RFP	eIF4H inh	Yeast UUG start	CSC inhib	PABP polyA inh	others
C=CCn1c2ccccc2c2nnc(SC(CC)C(=O)Nc3sc4c(c3C#N)CCCC4)nc21 (centres undefined)	4	i	-5	-4	-5	/	-2	0
Cc1cc(NN)nc(NS(=O)(=O)c2ccc(Cl)cc2)n1	10	i	1	3	0	/	-7	-7
